ALR H2O2 inh: blocks human ALR sulfhydryl oxidase activity; purified ALR, DTT oxidation, H2O2 HRP-luminol luminescence; inhibition, % (no concentration beside the values); 290,000 compounds, 3.8% hits; AID 485317;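 active = mean and each replicate at 75% or more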;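 also: stock transfer was 7.5 nL into about 7.5 µL; 0% = neutral wells and 100% = wells with inactivated enzyme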
Target sequence (P55789 whole entry, looked up): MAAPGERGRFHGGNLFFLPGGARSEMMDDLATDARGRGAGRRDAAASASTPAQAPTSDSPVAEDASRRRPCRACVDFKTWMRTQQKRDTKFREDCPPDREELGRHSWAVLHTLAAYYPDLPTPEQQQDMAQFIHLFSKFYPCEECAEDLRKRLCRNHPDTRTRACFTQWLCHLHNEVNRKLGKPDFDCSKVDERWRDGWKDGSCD
LANA-H2B inh: blocks KSHV LANA binding to histone H2A/H2B; Q9QR71; cell-free LANA-H2A/H2B peptide, fluorescence polarization; inhibition, % (test concentration not listed); 320,000 compounds, 0.6% hits; in the data active = inhibition mostly above about 10%, no sharp cut-off; inactive = mostly below about 6.7%;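 also: stock transfer was 7.5 nL into about 10 µL; 0% = median of vehicle wells and 100% = median of positive control wells; one replicate is shown; the record names a cut of 25% in any replicate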
Calb FLC: affects C. albicans growth with fluconazole; C. albicans CaCi-2 (fluconazole-resistant clinical isolate) + fluconazole, Alamar Blue growth, 48 h; growth inhibition, % (concentration not given with the values); 300,000 compounds, 0.57% hits; AID 1979;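 active = most replicates above 75%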;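 also: all wells also contain fluconazole at 8 µg/ml as a sub-toxic cotreatment; 0% = median of DMSO wells and 100% = median of geldanamycin control wells; wells of about 8 µL received 7.5 nL stock; the first replicate is given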
T cruzi inh: blocks replication of Trypanosoma cruzi. T. cruzi beta-gal in NIH3T3, luminescence, 90 h. inhibition, % (test concentration not listed). 300,000 compounds, 1.4% hits. AID 1885;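 active = mean inhibition across valid replicates above about 55%, limit read from the data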;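 also: signal also drops with host cell toxicity which is not excluded here; 0% = plate median of DMSO wells and 100% = zero luminescence signal; higher percent means less beta-gal luminescence so fewer parasites; stock transfer was 50 nL into about 50 µL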
Bfl-1 A1 inh: inhibitors of the anti-apoptotic protein A1, read as caspase activation; 330,000 compounds, 0.066% hits; AID 2462; caspase activation, % (no concentration beside the values); MEF A1-2A-BIM cells, Caspase-Glo 3/7 luminescence, 3 h; percent of clofoctol response, vehicle zero;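 active = over half of replicate activation scores above 10%, or exactly half above 10 with the replicate mean above 10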;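 also: wells of about 30 µL received 50 nL stock; many hits fall short of the cut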
Beta cell apopt: blocks beta cell apoptosis; INS-1E cytokine-induced death, ATP luminescence, 48 h; percent of positive-control rescue, neutral wells zero; protection from apoptosis, % (concentration not given with the values); 300,000 compounds, 0.8% hits;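 active = all replicates at 75% or more, or half of them and the mean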;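 also: 0% = cytokine-treated negative control wells and 100% = positive control rescue; higher means more ATP so stronger rescue from cytokine killing; wells of about 40 µL received 100 nL stock; the first replicate is given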
rRNA inh HTS: inhibits bacterial ribosomal RNA function over humanized ribosomes; AID 720706; 350,000 compounds, 1.6% hits; E. coli WT GFP vs humanized-ribosome RFP mutants, fluorescence, 24 h; stronger effect = lower value; DMSO median 0, no signal -100; GFP signal change (wild-type ribosome), % (no concentration beside the values);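 active = significant combined selectivity score with lowered wild-type GFP, culture density cut under 30%, mutant RFP and density less affected; inactive = any of these conditions unmet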; also: one replicate is shown; some compounds called inactive have numbers as strong as hits
Beta2AR agonist: agonists of human beta-2 adrenergic receptor inducing internalization | P07550 | Am2.2-beta2AR cells, FAP receptor internalization, flow cytometry; reference of the scale not given here | response, % (test concentration not listed) | 340,000 compounds, 0.43% hits;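 active = response above a set limit, near 3 SD of response in nonfluorescent compounds, cut at about 42% in these data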;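 also: stock transfer was 100 nL into about 11 µL; a reference agonist was the positive control; negative values mostly stem from fluorescent compounds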
Target sequence (P07550 whole entry, looked up): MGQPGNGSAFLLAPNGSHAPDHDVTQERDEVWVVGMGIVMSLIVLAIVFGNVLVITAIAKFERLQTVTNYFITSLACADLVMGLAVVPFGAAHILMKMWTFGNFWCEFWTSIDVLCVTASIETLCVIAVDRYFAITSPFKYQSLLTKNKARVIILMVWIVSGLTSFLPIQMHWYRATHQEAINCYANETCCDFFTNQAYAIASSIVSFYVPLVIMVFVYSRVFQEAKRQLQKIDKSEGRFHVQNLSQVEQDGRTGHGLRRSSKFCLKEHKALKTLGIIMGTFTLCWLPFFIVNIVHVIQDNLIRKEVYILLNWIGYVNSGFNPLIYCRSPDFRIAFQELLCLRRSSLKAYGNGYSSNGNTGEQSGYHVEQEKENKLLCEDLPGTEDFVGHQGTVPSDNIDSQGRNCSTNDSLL
rRNA inh HTS OD600: recorded beside rRNA inh HTS, whose call it bears; OD600 change, %; measured here: OD600 growth;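 optical density of the mix in the first replicate; 0 = DMSO median and -100 = no signal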
rRNA inh HTS RFP: also measured in rRNA inh HTS; calls as there; RFP signal change, %; measured here: RFP humanized mutant strains;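 first replicate; 0 = DMSO median and -100 = no signal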
* marks the source's active call; other numbers are inactive results; · = no result given.

Every second line gives: ALR H2O2 inh	LANA-H2B inh	Calb FLC	T cruzi inh	Bfl-1 A1 inh	Beta cell apopt	rRNA inh HTS	rRNA inh HTS OD600	rRNA inh HTS RFP	Beta2AR agonist
[1] O=C(CCn1c(=O)[nH]c2ccccc2c1=O)Nc1ccccc1
→ 1	-3.9	-4	-8	-0.1	-1	·	·	·	-15
[2] Nc1nc(NCCOCCO)nc(NCC2CCCO2)c1[N+](=O)[O-] (configuration not stated)
→ -5	-1.8	5	2	-0.6	-7	4	-4	-0.6	-2
[3] Cc1ccc(C(=O)C(C)N2C(=O)NC(C)(c3ccccc3)C2=O)cc1 (configuration not stated)
→ -20	3.6	-18	1	0.2	4	-4	-3	2.3	4
[4] CCCc1nc2c(=O)n(C)c(=O)[nH]c2n1C
→ -15	4.4	22	-25	-0.1	-6	·	·	·	-2
[5] N#Cc1cc(C(=O)c2ccccc2O)cn(-c2ccc(Cl)cc2)c1=O
→ 9	0.5	24	3	0.9	-2	-22	-21	-1.2	-1
[6] CC1=CC(C)(C)Nc2ccc(OC(=O)C(Cc3ccccc3)N3C(=O)C4CCCCC4C3=O)cc21 (configuration not stated)
→ -22	-2.3	-1	20	-0.8	-27	·	·	·	-2
[7] CC1CN(C(=S)SCC(=O)c2ccccc2)CC(C)O1 (configuration not stated)
→ 16	-3.5	-3	-1	0.7	-7	·	·	·	-13
[8] NS(=O)(=O)c1ccc(CCNC(=O)c2ccc(Cl)cc2[N+](=O)[O-])cc1
→ -3	-5.2	1	3	1.4	-12	10	6	-7.0	-1
[9] Cc1cc(C)c2c(N=NN3CCCCC3)[nH]nc2n1
→ -1	-1.5	-21	14	0.4	·	·	·	·	-3
[10] Cc1ccc(S(=O)(=O)N(C(=O)c2ccncc2)c2ccc(OC(=O)c3ccncc3)cc2)c(C)c1
→ 16	-1.5	1	14	-0.1	-22	-18*	-2.0*	2.7*	-18
[11] O=C(CC(c1ccccc1)c1ccccc1)Nc1ccc(Cl)cn1
→ -10	3.3	-2	11	0.6	17	-21	-18	6.1	-1
[12] Cc1ccc2nc3n(c2c1)CCCN3
→ 31	2.0	12	44	-1.1	-1	10	9	0.1	4
[13] Cc1ccc(N(CC(=O)N=Nc2c(O)[nH]c3ccccc23)S(C)(=O)=O)c(C)c1
→ -9	2.1	-20	13	0.5	-6	-16	-12	2.5	-13
[14] c1ccc2c(c1)Cn1nc(Cc3nc4c(s3)CCCC4)nc1-2
→ 2	8.0	-2	13	0.4	-3	·	·	·	-10
[15] COc1ccc(NC(=O)CN(C)C(=O)c2cccc(NS(=O)(=O)c3ccc(Br)cc3)c2)cc1
→ 1	-0.3	-10	-2	-0.2	·	1	-6	12	-3
[16] CCOC(=O)Nc1ccc2c(c1)N(C(=O)CCN(C)C)c1ccccc1CC2
→ ·	-3.5	-8	3	0.4	1	3	4	2.2	3
[17] Cc1cc(C)cc(OCC(O)CN2CCN(C(=O)c3ccco3)CC2)c1 (configuration not stated)
→ -18	1.5	5	7	-0.3	4	6	8	-0.4	-1
[18] O=C(NCCc1ccccn1)C(F)(F)C(F)(F)C(F)(F)C(F)(F)C(F)(F)C(F)F
→ 2	-2.9	-5	-1	1.0	-2	·	·	·	-5
[19] COC(=O)CC1C(=O)NCCN1C(=O)CSc1nc2ccccc2c(=O)n1CC(C)C (configuration not stated)
→ 0	-5.4	41	-4	0.7	-6	-9	-8	2.0	-3
[20] O=C(NCc1ccccc1)C1=C[C@@H](C2CC2)C[C@@H](OCCCCO)O1
→ ·	2.1	-9	17	0.3	0	4	5	4.6	2
[21] COc1cccc(C2=CC(c3ccccc3)n3nnnc3N2)c1 (configuration not stated)
→ -1	-0.3	18	2	0.6	-1	-4	-9	18	-3
[22] Cc1ccsc1/C=N/N=C/c1sccc1C
→ 1	-2.9	-4	2	-13	12	3	3	-0.4	-6
[23] CC(C)OP(=O)(c1ccc(N(C)C)cc1)C(O)c1c(Cl)cccc1Cl (configuration not stated)
→ 4	1.8	43	-8	0.3	-1	·	·	·	5
[24] O=S(=O)(c1cccs1)n1cnc2ccccc21
→ 97*	4.7	-3	2	0.0	3	·	·	·	2
[25] Cc1cccc(CNC(=O)c2ccccc2NC(=O)C2=CSCCO2)c1
→ -2	10	-2	-33	-1.1	0	2	20	-0.3	6
[26] CC(C)c1nnc(NC(=O)CCC(=O)NC2CCCCC2)s1
→ -3	-0.1	-8	-15	1.7	-2	·	·	·	·
[27] Cc1ccc(NC(=O)NC(=O)CSc2nnnn2C)c(C)c1
→ ·	-3.4	35	·	0.4	·	·	·	·	-10
[28] c1ccc2[nH]c3cc4ncnc4cc3nc2c1
→ -32	26*	11	6	-1.2	24	-4	-2	-3.6	8
[29] Cc1ccc(-c2nnn(CC(=O)N(Cc3ccccc3F)C(C(=O)NC3CCCC3)c3ccncc3)n2)o1 (configuration not stated)
→ -6	0.9	21	6	-0.1	2	·	·	·	-1
[30] CCc1cc(C(=O)N2CCCC(C(=O)c3cccc(OC(C)C)c3)C2)n(C)n1 (configuration not stated)
→ 0	-0.7	-1	-8	0.4	10	-13	-17	-3.9	-7
[31] O=C(c1ccc(-c2ccccc2)cc1)C1CCCN(C(=O)c2ccncc2)C1 (configuration not stated)
→ -5	0.0	-10	28	-0.5	·	-36	-54	-4.5	-7
[32] O=[N+]([O-])c1ccc(C23CC4CC(CC(O)(C4)C2)C3)cc1
→ 1	1.1	-5	-6	-0.9	-4	·	·	·	·
[33] Cn1c(=O)c(N=O)c(N)n(Cc2ccccc2)c1=S
→ ·	3.0	-31	-18	-0.5	-3	3	-4	-1.8	2
[34] CCOC(=O)N1CCN(C(=O)c2oc3ccc(S(=O)(=O)N4CC(C)CC(C)C4)cc3c2C)CC1 (configuration not stated)
→ ·	-4.6	10	33	-0.6	20	·	·	·	1
[35] CN1CCc2c(sc(NC(=O)c3cc(Cl)sc3Cl)c2C(N)=O)C1
→ 97*	0.6	-1	-10	-1.0	7	-2	-35	2.1	·
[36] COC(=O)C(C)C1Sc2ccccc2NC1=O (configuration not stated)
→ -32	-1.3	·	-12	0.5	-6	·	·	·	0
[37] CCN(CC)c1ccc(S(=O)(=O)N2CCOCC2)cc1NC(=O)COC(=O)c1cccnc1SC
→ -2	2.9	-2	4	-0.5	1	-6	-6	7.2	13
[38] Cn1nccc1C(=O)N1CCCC(C(=O)c2ccc(C(F)(F)F)cc2)C1 (configuration not stated)
→ -3	9.9	4	0	0.2	-1	1	4	-3.4	-3
[39] CCN1CCN(c2ccc(S(=O)(=O)N3CCOCC3)cc2NC(=O)c2ccccc2OC(F)F)CC1
→ -4	4.1	35	22	-0.3	-13	0	-2	-1.3	·
[40] COc1cc(NC(=O)c2cc(-c3ccco3)on2)cc(OC)c1OC
→ ·	-2.8	4	0	0.7	4	-2	0	0.3	-5
[41] Cn1c(=O)c2c(nc(SCCCC#N)n2Cc2ccccc2F)n(C)c1=O
→ 0	4.3	6	2	0.7	1	-3	-9	-1.1	-8
[42] CCOc1ccc(N(C)S(=O)(=O)c2cc(-c3cc(C)no3)ccc2CC)cc1
→ -24	0.6	8	13	-0.5	9	-8	-8	0.3	33
[43] CN1CCN(S(=O)(=O)c2cc(Cl)c(Cl)cc2Cl)CC1
→ -1	0.0	-7	7	0.4	-4	7	6	-0.1	-5
[44] COC(=O)c1ccc(NC(=O)c2cnc3scc(C)n3c2=O)cc1
→ -43	0.2	-7	-1	-0.8	·	·	·	·	·
[45] COc1ccc(-n2ncc3c(N(C)C4CCCCC4)ncnc32)cc1
→ ·	4.5	4	9	-1.0	-5	-26	-43	-6.9	-18
[46] O=C(Cc1ccc(Cl)cc1)Nc1ccccc1C(=O)N1CCCCC1
→ -6	0.6	-1	0	0.5	-2	-1	-2	1.3	1
[47] Cc1cc(C)cc(OCCNC(=O)C2CCN(S(=O)(=O)c3ccccc3)CC2)c1
→ 0	-2.4	0	2	0.6	-4	5	7	2.7	5
[48] CCc1nc(N2CCN(C(=O)c3ccccc3)CC2)c(C#N)c2c1COC(C)(C)C2
→ -18	0.3	·	·	-1.0	6	·	·	·	12
[49] CS(=O)(=O)N(CC(=O)N1CCOCC1)Cc1ccc(Cl)cc1
→ 9	1.4	-7	-11	1.0	-2	·	·	·	4
[50] CCOC(=O)N1CCN(C(=S)NC2CCCC2)CC1
→ -1	-1.7	7	-1	0.1	-2	8	-2	0.1	-4
[51] CCN(CC)S(=O)(=O)c1cccc(NC(=O)CSc2nc3ccccc3[nH]2)c1
→ ·	-2.8	17	10	0.2	-3	-44	-54	2.6	-3

This is a subset; the hit share may differ from the screen's.
